# Compound activity: PubChem BioAssay, National Center for Advancing Translational Sciences (NCATS)
# VDR inh: vitamin D3 receptor (human) inhibition; P11473; VDR-SRC2-3 peptide fluorescence polarization, 2 h; Potency, µM, for the others: max response, negative = inhibition, hits mostly inhibitors; 0.93% of 400,000 active; AID 504847; active = well fitted inhibition curve with a large enough effect; inconclusive = small, poorly fitted or top-dose-only effect, or another doubt; inactive = no such curve, though single readings can be large or run the other way; also: series mostly up to about 120 µM
# Target sequence (P11473 whole entry, looked up): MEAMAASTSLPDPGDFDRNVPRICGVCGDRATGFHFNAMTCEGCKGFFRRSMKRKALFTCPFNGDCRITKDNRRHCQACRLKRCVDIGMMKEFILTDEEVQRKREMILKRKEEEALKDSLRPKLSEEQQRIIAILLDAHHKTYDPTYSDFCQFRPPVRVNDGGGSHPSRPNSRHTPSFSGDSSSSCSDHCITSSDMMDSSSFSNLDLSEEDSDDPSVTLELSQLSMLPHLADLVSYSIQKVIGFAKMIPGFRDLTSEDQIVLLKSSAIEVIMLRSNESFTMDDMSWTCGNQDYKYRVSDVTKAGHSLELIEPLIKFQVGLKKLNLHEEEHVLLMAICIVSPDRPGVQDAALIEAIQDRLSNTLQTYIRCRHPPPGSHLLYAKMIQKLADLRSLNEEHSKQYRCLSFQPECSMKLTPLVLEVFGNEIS
#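 Fluorescence polarization assay measuring small-molecule disruption of VDR binding to the coregulator peptide SRC2-3. Compounds were pin-transferred (23 nl) into the reagent mix and incubated 2 h at room temperature before reading.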
# * = called active by the depositor; u = inconclusive; & = joins results of further samples; [ ] = remark or other dose. % is scaled to controls: 0 for no effect and ±100 for the full control effect; potency is read from the fitted curve at half-maximal effect.
SMILES,VDR inh
CC(C)Oc1ccc(CCc2nnc(SCC(=O)O)n2-c2ccccc2)cc1,104%[activator]
O=C(Nc1nncs1)c1c(F)c(F)c(F)c(F)c1F,-17%
CC(C)(C)c1nc(NCC2CCCO2)c2nnn(Cc3ccccc3)c2n1 (configuration not stated),16%
CC(Oc1ccc(Cl)cc1)C(=O)NNC(=S)NC(=O)c1ccco1 (configuration not stated),-28%
CC(=O)c1cccc(Nc2nc(-c3cccc([N+](=O)[O-])c3)cs2)c1,-10%
CCCN(CCC)S(=O)(=O)c1ccc(NS(=O)(=O)c2ccc(F)cc2)cc1,8%
CC(C)N(CCCNC(=O)c1ccc(CS(=O)(=O)c2c(Cl)cccc2Cl)o1)Cc1ccccc1,0%
Cc1nc(NC(=O)C2CCCCC2C(=O)O)sc1C (configuration not stated),5%
Cc1ccc(S(=O)(=O)N2CCN(C(=O)COC(=O)c3cncc(Br)c3)CC2)c(C)c1,18%
Cc1ccc(-c2cc(C(=O)Nc3ccc(S(=O)(=O)Nc4onc(C)c4C)cc3)c3ccccc3n2)cc1,-6%
COC(=O)N[C@H](C[N+](=O)[O-])c1cccc(C)c1,-1%
CN(Cc1nc2ccccc2c(=O)[nH]1)c1ccccc1,-10%
C[C@H](NS(=O)(=O)c1ccc(Cl)c(Cl)c1)C(=O)OCc1cc(=O)n2cc(Br)ccc2n1,-7%
Cn1ccnc1-c1nnn(-c2ccc(Cl)c(Cl)c2)n1,-7%
COc1ccc(N2CCN(C(=O)c3cc(NS(=O)(=O)c4ccc(F)cc4)ccn3)CC2)cc1,2%
COc1ccc(C(=O)CCC(=O)Nc2ccc(C)c(Cl)c2)cc1,9%
COCCNC(=S)N(CCc1c(C)[nH]c2ccc(C)cc12)Cc1cc(OC)c(OC)c(OC)c1,13%
CC(C)c1cc(NC(=O)CSc2nnc(-c3ccccc3F)n2C)on1,-3%
Cc1nc2ccc(S(=O)(=O)NC(C(=O)NC3CCCC3)C(C)C)cc2s1 (configuration not stated),-7%
CC(C)Oc1ccc(C(=O)CCN2CCCCC2)cc1,u
Cc1ccc(-c2nn(C)c(=O)c3ccccc23)cc1CNS(C)(=O)=O,24%
O=C(Nc1cc([N+](=O)[O-])ccc1O)c1ccc2c(c1)C(=O)N(Cc1ccco1)C2=O,u
CN(C1CCCCC1)S(=O)(=O)c1ccc2c(c1)c(=O)c(C(=O)NCCc1ccc(Cl)cc1)cn2C,3%
Cc1ccc(N2CC(C(=O)Nc3ccncc3)CC2=O)cc1 (configuration not stated),-13%
Cc1cc(=O)oc2c1c(C)nn2-c1cccc(Cl)c1,23%
# Continuation:
SMILES,VDR inh
CC(=O)Nc1c([N+](=O)[O-])cc2[nH]c(=O)[nH]c2c1[N+](=O)[O-],5%
Cc1ccc(N(C(=O)CNC(=O)c2ccco2)C(C(=O)NC2CCCC2)c2cccnc2)c(C)c1 (configuration not stated),0%
O=C(CCn1c(=O)sc2ccccc21)Nc1nccs1,-5%
CC(=O)Oc1ccc2c(c1C(C)C)CCC1C(C)(C)CCC[C@@]21C (some centres not stated),-6%
Cc1ccc(C(=O)c2cn(Cc3cccc(F)c3)c3nc(C)ccc3c2=O)cc1,-15%
Cc1ccc(-n2c(=O)c3c(C)c(C)sc3n(Cc3ccc(F)cc3Cl)c2=O)cc1C,7%
Cc1ccccc1C(=O)N1CCN(c2ncnc3c2cnn3-c2ccccc2)CC1,11%
O=C(O)CCc1ccc(-c2ccccc2)n1-c1cccc(Br)c1,u
COc1ccc(-n2nc3c(c2NC(=O)c2cc4ccccc4o2)CS(=O)(=O)C3)cc1,-3%
CC(Nc1c[nH]c(=O)[nH]c1=O)c1ccccc1 (configuration not stated),6%
COc1ccc(CCN2C(=O)CN(Cc3ccccc3)CC2=O)cc1OC,9%
CC(C)(C)c1ccc(OCC(=O)NCCN2CCOCC2)cc1,8%
CC(C)C[C@@H](CSc1ccc(Br)cc1)N1CCN(C)CCC1=O,-11%
COc1ccc(CNC(=O)C2CCN(S(=O)(=O)N3CCCCC3)CC2)c(OC)c1,31%[activator]
Cc1c(N=Nc2ccc(N(C)C)cc2)c(=O)n(-c2ccccc2)n1C,9%
CCC(=O)N(Cc1cc2ccccc2[nH]c1=O)c1ccc(OC)cc1,-28%
COC(=O)c1ccccc1NC(=S)NC(=O)COc1ccc(C)cc1,-2%
Cc1nn(CCCC(=O)Nc2ccccn2)c(C)c1[N+](=O)[O-],-17%
CCOc1ccc(S(=O)(=O)NCCc2sc3nc(-c4ccc(F)cc4)nn3c2C)cc1,4%
COc1cc(C(=O)N/N=C/c2ccc(OC(=O)c3ccccc3Cl)cc2)ccc1O,-3%
COc1ccc(CCNC(=O)c2csc3c2CCCCC3)c(OC)c1,1%
O=C(Nc1cc(S(=O)(=O)N2CCCCCC2)ccc1OCC(F)(F)F)c1cnccn1,11%
Cc1ccc(S(=O)(=O)CCC(=O)OCc2cc(=O)oc3cc(C)ccc23)cc1,7%
Cc1ccc2oc(=O)c3cc(C(=O)Nc4ccc(C)c(F)c4)sc3c2c1,-25%
CNC(=O)C1CCN(S(=O)(=O)c2c(C)noc2/C=C/c2ccc(OC)cc2)CC1,-13%
# The listing continues.
SMILES,VDR inh
O=C(Nc1ccc(Cl)cc1)c1cc2nc(-c3ccc4c(c3)OCO4)cc(C(F)(F)F)n2n1,-3%
Cc1cccc(-c2noc(CN(C(=O)c3ccc(C)c(C)c3)C(C)C)n2)c1,u
CC(NC(=O)C(Cc1ccccc1)=NO)c1ccccc1 (configuration not stated),-24%
CN(Cc1ccccc1)C(=O)CN1C(=O)c2ccc([N+](=O)[O-])cc2C1=O,-11%
O=c1[nH][nH]c(C(F)(F)F)c1C=NCc1cccc(Cl)c1,8%
COc1ccccc1CCC(=O)Nc1cc(S(=O)(=O)N2CCCCC2)ccc1N1CCN(C)CC1,-4%
Cn1cccc1-c1cc(C(=O)N/N=C/c2cccc(O)c2)[nH]n1,6%
O=C1CN(C(=O)COc2ccccc2)c2ccccc2N1,-2%
Cc1cccc(NC(=O)Cn2c(=O)n(CCCCCC(=O)NCc3ccc4c(c3)OCO4)c(=O)c3sccc32)c1,u
CCSc1ncc(Cl)c(C(=O)Nc2ccc(S(=O)(=O)N(C)c3ccccc3)cc2)n1,28%
FC(F)(F)c1cc(-c2ccccc2)nc(N2CCCCCC2)n1,-8%
COc1ccc(COC(=O)c2[nH]c3c(c2C)C(=O)CC(c2ccc(OC)c(OC)c2)C3)cc1 (configuration not stated),-18%
Cc1nc2c(ncn2-c2ccccc2)c(=O)n1NC(=O)CN1CCCC1,6%
Cc1c(C)c(C)c(S(=O)(=O)Nc2ccc3[nH]c(=O)[nH]c3c2)c(C)c1C,2%
CCOC(=O)c1cc(OC(=O)c2ccccc2)n(-c2ccccc2)n1,0%
O=C(/C=C/Nc1ccc(F)c(Cl)c1)c1ccccc1,-11%
CSc1cccc(NC(=O)N2CCc3ccc(NC(=O)c4ccccn4)cc3C2)c1,15%
CCC(C)(C)NC(=O)Cc1ccc(F)cc1,6%
CCC(C)c1ccc(NS(=O)(=O)c2c(C)[nH]c(=O)[nH]c2=O)cc1 (configuration not stated),6%
Cc1cc(NC(=O)CSc2nc(N)c(NC(=O)c3ccccc3)c(=O)[nH]2)no1,-5%
Cc1cc(-c2ccc(Cl)cc2)c2cnn(C(C)C)c2n1,-12%
Cn1c(N2CCN(S(=O)(=O)c3ccc(F)cc3)CC2)nc2ccccc21,-2%
CC(NC(=O)CCc1cn(Cc2ccccc2Cl)c2ccccc12)c1ccccc1 (configuration not stated),0%
O=C(Nc1ccc(N2CCN(C(=O)c3ccco3)CC2)cc1)c1ccc(F)cc1,-2%
COc1ccccc1-c1noc(CCCC(=O)Nc2cc(C)ccc2C)n1,15%
# (cont.)
SMILES,VDR inh
O=C(CSc1nc(-c2ccccc2)c(-c2ccccc2)o1)Nc1nnc(-c2ccccc2)s1,-11%
COC(=O)CN1C(=O)COc2ccc(S(=O)(=O)N3CCOCC3)cc21,3%
CN(C)CCNC(=O)c1onc(CSc2ccncc2)c1C(=O)NCCN(C)C,-22%
O=C(O)CC1(CC(=O)NCc2ccccn2)CCCCC1,-3%
COc1ccc(-n2c(=O)c3c4c(sc3n3c(SCCC(C)C)nnc23)COC(C(C)C)C4)cc1 (configuration not stated),-13%
O=C(N/N=C/c1ccc(N2CCCC2)c([N+](=O)[O-])c1)c1cccnc1,-9%
CCN(CC)S(=O)(=O)c1ccc(C(=O)Nc2nnc(-c3ccco3)o2)cc1,11%
CSc1oc(-c2ccc(F)cc2)nc1S(=O)(=O)c1ccc(Br)cc1,-4%
O=C(Nc1ccccc1C(F)(F)F)NC1CCCCCCC1,1%
CCN(CC)C(=O)c1cc2sc3ccccc3c2s1,-7%
CN1CCN(S(=O)(=O)c2cccc(C(=O)N(C)CC(=O)Nc3ccc(Cl)c(Cl)c3)c2)CC1,-11%
O=C(Nc1cccc(C(F)(F)F)c1)c1cccnc1,1%
CCCCOC(=O)N1CCOCCOCCOCCOCC1,-18%
COc1ccc(O)c(C2NC(CC(C)C)(C(=O)O)C3C(=O)N(Cc4ccccc4)C(=O)C23)c1 (configuration not stated),2%
COc1ccc(COC[C@H](C)[C@H](O)[C@@H](C)[C@H]2OC(=O)[C@@H]2C)cc1,-19%&-6%
Cc1ccc(NC(=O)C2C3C=CC4(CN(Cc5cccnc5)C(=O)C24)O3)cc1F (configuration not stated),-20%
CSCC[C@H](C=O)NC(=O)[C@H](CC(C)C)NC(=O)[C@H](CC(C)C)NC(C)=O,6%
NC(=O)C(=O)O,-7%
CCCc1cc2c(cc1NC(=O)c1ccccc1Cl)OCO2,16%
Cc1ccc(OCC(O)Cn2c(N)nc3c2c(=O)n(C)c(=O)n3C)cc1 (configuration not stated),-4%
CNc1nnc(CSc2nc3ccccc3s2)s1,-3%
Cc1ccc2nc(N3CCN(C(=O)CCC(=O)O)CC3)nc(-c3ccccc3)c2c1,-7%
CC1CCc2c(sc3ncnc(N4CCOCC4)c23)C1 (configuration not stated),7%
CCCNC(=O)CN(C1CCCCC1)S(C)(=O)=O,2%
CCc1ccc(-c2nc(SCC(=O)c3c(N)n(C4CC4)c(=O)[nH]c3=O)n[nH]2)cc1,-5%

# Sorted by value in VDR inh (largest number first): six of the compounds above
structure | VDR inh
O=C(Nc1cccc(C(F)(F)F)c1)c1cccnc1 | 1%
CSc1oc(-c2ccc(F)cc2)nc1S(=O)(=O)c1ccc(Br)cc1 | -4%
Cc1ccc2nc(N3CCN(C(=O)CCC(=O)O)CC3)nc(-c3ccccc3)c2c1 | -7%
O=C(CSc1nc(-c2ccccc2)c(-c2ccccc2)o1)Nc1nnc(-c2ccccc2)s1 | -11%
COc1ccc(-n2c(=O)c3c4c(sc3n3c(SCCC(C)C)nnc23)COC(C(C)C)C4)cc1 (configuration not stated) | -13%
CCCCOC(=O)N1CCOCCOCCOCCOCC1 | -18%

# Additional entries follow:
SMILES,VDR inh
C=CCn1c(SCC(=O)N2CC(C)OC(C)C2)nnc1-c1ccncc1 (configuration not stated),-17%
C[C@H](NC(=O)C(c1ccccc1)c1ccccc1)c1ccccc1,24%
CCOCc1nnc(NC(=O)c2ccc(NC(C)=O)cc2)s1,-15%
COc1cccc(CSc2nnc(C(F)(F)F)n2Cc2ccc(F)cc2)c1,-11%
Clc1ccc2ncc(-c3nnnn3-c3ccccc3)c(-c3ccccc3)c2c1,8%
N#CCSc1ncnc2ccccc12,-20%
COc1ccc(C2Nc3ccccc3C(=O)N2Cc2ccco2)cc1COc1ccc(F)cc1 (configuration not stated),-5%
O=C1c2ccccc2C(=O)N1CCc1c[nH]c2ccc(O)cc12,-5%
CCOC(=O)C1CCCN(CC(O)COCc2ccc3c(c2)OCO3)C1 (configuration not stated),0%
CN(CCOC(=O)c1ccccc1)Cc1ccccc1,0%
CCN(Cc1ccccc1)c1ccc(/C=N/NC(=O)c2cccc(S(=O)(=O)N3CCOCC3)c2)cc1,8%
Cc1nc2cc3ccccc3cc2c(=O)[nH]1,-4%
COc1ccccc1NC(=O)CSc1nnc(C2CCCCC2)o1,-7%
COc1cc2c(cc1OC)CN(C(=O)Cn1ccccc1=O)CC2,-10%
CCOc1ccc(CC(=O)NCC2(N3CCCCC3)CCCCC2)cc1,-11%
CC(C)C(CC(=O)NCc1ccco1)c1ccco1 (configuration not stated),-1%
COc1ccc(-c2noc(CSc3nc4sc(C)c(C)c4c(=O)n3-c3ccccc3)n2)cc1OC,-6%
NC(=O)c1ccc[n+](CC(=O)c2cccc([N+](=O)[O-])c2)c1,1%
COc1ccc(OCC(=O)Nc2ccncc2)cc1,-5%
O=C(Nc1ccc(S(=O)(=O)Nc2nccs2)cc1)c1cccc(F)c1,4%
CC1(CCc2ccc3c(c2)OCO3)NC(=O)c2ccccc2N1 (configuration not stated),u
COCCn1c(C)cc(C(=O)COC(=O)CCc2ccc(S(=O)(=O)N3CCOCC3)cc2)c1C,3%
COc1ccc(CC(=O)OCC(=O)NC2CCCCCC2)cc1OC,-3%
COc1ccc(NC(=O)C/C(C)=N/NC(=O)c2ccccn2)c(OC)c1,-14%
O=C(CCc1ccccc1)Nc1cccc(-c2nnc(-c3ccco3)o2)c1,8%
O=C(c1nc(-c2ccc(Cl)cc2)n2c1CCCCC2)N1CCN(c2ccccc2F)CC1,14%
COC(=O)c1scc(C)c1NC(=O)Cc1ccccc1,-1%
CC(=O)COC(=O)c1cccc(N2C(=O)C3C4C=CC(C4)C3C2=O)c1 (configuration not stated),-10%
CCOC(=O)C1CCN(C(=O)c2cc3ccc4ccc(C)[nH]c4c3n2)CC1,2%
Cc1cccc(Cc2cnc(NC(=O)c3ccc(C)o3)s2)c1,12%

# Rewritten with the structure last: entries from further up.
VDR inh	canonical_smiles
-14%	COc1ccc(NC(=O)C/C(C)=N/NC(=O)c2ccccn2)c(OC)c1
8%	O=C(CCc1ccccc1)Nc1cccc(-c2nnc(-c3ccco3)o2)c1
14%	O=C(c1nc(-c2ccc(Cl)cc2)n2c1CCCCC2)N1CCN(c2ccccc2F)CC1
-1%	COC(=O)c1scc(C)c1NC(=O)Cc1ccccc1
-10%	CC(=O)COC(=O)c1cccc(N2C(=O)C3C4C=CC(C4)C3C2=O)c1 (configuration not stated)

# Only part of the results is shown, so the mix of outcomes need not match the whole.
